VDR inh: blocks the human vitamin D receptor. VDR-SRC2-3 peptide fluorescence polarization, 2 h. Potency, µM, inactives show max response, negative = inhibition, actives largely listed as inhibitors. 0.93% of 400,000 active. AID 504847. P11473; active = well fitted inhibition curve with a large enough effect; inconclusive = small, poorly fitted or top-dose-only effect, or another doubt; inactive = no such curve, though single readings can be large or run the other way; also: series mostly up to about 120 µM
Target sequence (P11473 whole entry, looked up): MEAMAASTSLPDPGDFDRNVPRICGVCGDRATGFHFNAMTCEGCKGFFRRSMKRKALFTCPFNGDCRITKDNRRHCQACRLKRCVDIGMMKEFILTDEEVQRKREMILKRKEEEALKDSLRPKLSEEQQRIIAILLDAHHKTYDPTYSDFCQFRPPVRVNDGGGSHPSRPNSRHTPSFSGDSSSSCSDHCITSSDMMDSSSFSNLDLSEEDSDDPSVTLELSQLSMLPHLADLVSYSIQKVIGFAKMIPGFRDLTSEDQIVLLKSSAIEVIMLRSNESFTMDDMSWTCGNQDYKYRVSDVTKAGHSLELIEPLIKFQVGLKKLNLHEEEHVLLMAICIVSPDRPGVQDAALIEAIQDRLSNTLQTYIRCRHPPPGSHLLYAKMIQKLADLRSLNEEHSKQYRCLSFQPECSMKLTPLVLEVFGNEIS
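The screen uses fluorescence polarization to detect compounds that interfere with recruitment of the SRC2-3 coactivator peptide to VDR; plates are read after 2 h at room temperature.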
An asterisk follows results filed as active; ? = inconclusive; & = joins results of further samples. % is scaled to controls: 0 for no effect and ±100 for the full control effect; potency is read from the fitted curve at half-maximal effect.

| smiles | VDR inh |
| --- | --- |
| COc1cc(CN2CCN(CCCc3ccccc3)CC2CCO)cc(OC)c1 (centres undefined) | -11% |
| Cc1ccc(CN2CCCN(C)CC2)c(C)c1 | 79µM* |
| O=C(Nc1cccnc1)c1ccccc1NS(=O)(=O)c1ccc(F)cc1 | -15% |
| CCOC(=O)N1CCc2c(sc(NCc3ccc(OC)c(Br)c3)c2C(=O)Nc2cc(OC)ccc2OC)C1 | -3% |
| Cc1nc2c(C)[n+](CC(=O)c3ccccc3)ccc2n1C | -16% |
| COc1ccc(NC(=O)CCS(=O)(=O)c2cc3c4c(c2)CCN4C(=O)CC3)c(OC)c1 | 9% |
| O=C(N/N=C/c1ccc[nH]1)c1ccccc1OCc1ccccc1Cl | 1% |
| Cc1cccc(N(Cc2ccccc2)C(=O)CSC(C)C(=O)Nc2cc(C)on2)c1 (centres undefined) | ? |
| CCOc1ccc(-c2nc(N)ncc2-c2ccccc2OC)c(O)c1 | -1% |
| Cc1ccc(OCC(=O)N(C)CC(=O)NCc2ccco2)c(Br)c1 | -9% |
| COc1cc2c(cc1OC)CN(c1ccc(-c3ccccc3OC)nn1)CC2 | -8% |
| COc1ccc(CNCC(=O)Nc2ccccc2-n2cccc2)cc1 | -2% |
| CCc1ccc(Oc2coc3cc(OCC(=O)Nc4cc(C)ccc4C)ccc3c2=O)cc1 | -7% |
| COc1ccccc1CNc1ccnc(-c2ccc3c(c2)OCO3)n1 | ? |
| COc1ccc(CCNC(=O)c2ccc(CS(=O)(=O)c3ccc(C)cc3)o2)cc1OC | -22%&-5% |
| CS(=O)(=O)c1ccc2c(c1)SC1=NC(=O)/C(=C/c3ccco3)C(=N)N12 | -13% |
| Fc1ccc2nc(C(F)(F)F)cc(N3CCOCC3)c2c1 | 5% |
| COc1ccc2nc(NC(=O)CSc3cn[nH]n3)sc2c1 | 0% |
| CC(C)c1ccc(NC(=O)N(CCc2nc3ccccc3[nH]2)C2CCCC2)cc1 | -1% |
| Cc1onc(-c2ccccc2)c1C(=O)n1cc(Br)cn1 | 7% |
| CCOc1ccc(CCNC(=O)Cn2nnc(-c3ccccc3Cl)n2)cc1OCC | 2% |
| CC(=O)c1cccc(NC(=O)c2cnccn2)c1 | -16% |
| CCCCn1c(N)c(N(CCOC)C(=O)c2ccc(-c3ccccc3)cc2)c(=O)[nH]c1=O | -10% |
| COc1ccccc1NC(=O)c1ccc(NC(=O)COC(=O)C2CCCCC2)cc1 | 4% |
| O=C(N/C(=C\c1ccccc1)C(=O)N1CCOCC1)c1cccc(Br)c1 | 13% |
| O=C(NC1CCCCC1NC(=O)c1ccco1)c1ccco1 (centres undefined) | 3% |
| COC(=O)[C@@H](NC(=O)Nc1cccc(OC)c1)C(C)C | 20% |
| CC(=O)c1ccc(NC(=O)Nc2nnc(N3CCCC(C)C3)s2)cc1 (centres undefined) | -2% |
| O=C(Cn1ccc(C(F)(F)F)n1)Nc1ccc(S(=O)(=O)NCc2ccco2)cc1 | -5% |
| Cc1ccc(S(=O)(=O)/N=C2\C=C(NS(=O)(=O)c3ccccc3)C(=O)c3ccccc32)c(C)c1 | -13% |
| Cc1ccc(CNc2ccc(-c3nc(-c4cccnc4)no3)cc2[N+](=O)[O-])cc1 | 8% |
| CCOC(=O)c1c(NC(=O)/C=C/c2ccccc2)sc2c1CCCC2 | -7% |
| COc1ccc(C(=O)CSc2nn3c(=O)c(C(C)(C)C)nnc3s2)cc1 | -1% |
| Cc1c2ccccc2nc2ccccc12 | -20% |
| c1ccc(OCCOCCN2CCc3ccccc3C2)cc1 | 0% |
| Cc1cc(=O)oc2c(C)c(OC(C)C(=O)NCCCN3CCCC3=O)ccc12 (centres undefined) | -4% |
| O=C(C1CCCN(S(=O)(=O)c2cccc3nsnc23)C1)N1CCN(c2cccc(Cl)c2)CC1 (centres undefined) | -11% |
| CCN=C1SC(C(=O)Nc2ccc(OC)cc2)CC(=O)N1CC (centres undefined) | -11% |
| Cc1ccc(C2=NN(C(=O)CSc3nccn3C)C(c3ccco3)C2)cc1 (centres undefined) | 16% |
| COC(=O)C1=C(C(=O)OC)C(C(=O)OC)C(C(=O)OC)C(C(=O)OC)(C(=O)OC)C(C(=O)OC)=C1C(=O)OC (centres undefined) | 40µM* |
| COc1cccc(C(=O)NC2=NC(c3ccccc3F)CC(=O)N2)c1 (centres undefined) | -7% |
| Cc1ccc2c(=O)[nH]c(Nc3nc(C)cc(-c4ccccc4)n3)nc2c1 | 0% |
| Cc1csc2nc(CNS(=O)(=O)c3ccc4c(c3)OCCO4)cn12 | -20% |
| COc1ccc(C[C@@](C)(N)C(=O)O)cc1OC | -1% |
| CC(=O)c1ccccc1OCCn1nnc(-c2ccc(C)cc2)n1 | -10% |
| Cc1ccc(OCCCN2C(=O)C(=O)c3cccc(C)c32)cc1 | ? |
| COc1ccc(-c2onc(C)c2C)cc1S(=O)(=O)Nc1cc(Cl)ccc1C | 14% |
| O=C(CSc1ncn[nH]1)NCc1ccccc1Cl | -1% |
| Cc1ccc(NC(=O)CN2C(=O)COc3ccc(S(=O)(=O)NC4CCCC4)cc32)cc1Cl | 7% |
| COc1cc(/C=N/NC(=S)NCCN2CCOCC2)cc(OC)c1O | -6% |
| CCOc1cccc(C(=O)NC(=S)Nc2ccc3c(c2)OCCO3)c1 | ? |
| COC(=O)c1cc(COC(=O)c2ccc3ccccc3n2)oc1C | 4% |
| O=C(COC(=O)c1ccc([N+](=O)[O-])o1)NCc1ccc2c(c1)OCO2 | -16% |
| NS(=O)(=O)c1ccc(CCNC(=S)NC2CCCC2)cc1 | -2% |
| C=CCSc1nnc(NC(=O)C2=COCCO2)s1 | -5% |
| Cc1ccc2[nH]c(=O)c(CN(CCCN(C)C)C(=O)Nc3cccc(Cl)c3)cc2c1 | 8% |
| Cc1cccc(NC(=O)Cc2ccc(NC3=NC4CS(=O)(=O)CC4S3)cc2)c1 (centres undefined) | -3% |
| CCOC(=O)C1CCCN(c2ncnc3c2cnn3-c2ccc(C)c(Cl)c2)C1 (centres undefined) | -1% |
| CN(C)Cc1ccccc1-c1ccc2ncnc(NCc3cccs3)c2c1 | -7% |
| COc1ccccc1N1CCN(C(=O)C(C)NC(=O)c2cccc([N+](=O)[O-])c2)CC1 (centres undefined) | -6% |

Given with the structure last: entries from further up.
VDR inh,SMILES
-16%,O=C(COC(=O)c1ccc([N+](=O)[O-])o1)NCc1ccc2c(c1)OCO2
-2%,NS(=O)(=O)c1ccc(CCNC(=S)NC2CCCC2)cc1
-5%,C=CCSc1nnc(NC(=O)C2=COCCO2)s1

(listing goes on)
| smiles | VDR inh |
| --- | --- |
| COc1ccc(OCc2ccc(-c3nc(C#N)c(NCc4cccnc4)o3)o2)cc1 | 11% |
| Cc1cc(C)cc(N(CCC(=O)O)S(=O)(=O)c2ccc(Cl)cc2)c1 | 15% |
| O=C(OCC(=O)N1CCOCC1)c1ccccc1OCc1ccccc1 | -10% |
| CCc1ncc(CN2CCCC(C(=O)Nc3cccc(-c4cccc(C)c4)c3)C2)cn1 (centres undefined) | 1% |
| COc1ccc(S(=O)(=O)N2CCC(C(=O)NC3CC3)CC2)cc1Cl | 3% |
| Cc1cc(NC(=O)c2cnn3c(C(F)(F)F)cc(-c4ccc(Br)cc4)nc23)no1 | -2% |
| COc1ccc(CCNC(=O)c2ccccc2C(=O)NCCc2ccc(OC)c(OC)c2)cc1OC | -13% |
| O=S(=O)(c1ccc(Br)cc1)n1c(Cc2ccccc2)nc2ccccc21 | -17% |
| Cn1nc(C(F)(F)F)c2cc(C(=O)Nc3ccc(F)cc3F)sc21 | -5% |
| Cc1csc2nc(CCNS(=O)(=O)c3cccs3)cn12 | -5% |
| CC[N+]1=CN(c2ccccc2)C(C)=CC1(C)C | -3% |
| CCC(CC)C(=O)N1CC(=O)Nc2ccc(C)cc2C1c1ccccc1 (centres undefined) | 16% |
| O=C(Nc1cc(C(=O)N2CCN(c3ccccc3)CC2)ccc1Cl)c1cccs1 | -12% |
| CCCCC(C(=O)N/N=C/c1ccccn1)C(=O)N/N=C/c1ccccn1 | -10% |
| O=C(NCC(c1ccco1)N1CCc2ccccc2C1)c1ccc(F)cc1 (centres undefined) | -10% |
| Cc1ccccc1N(Cc1ccccc1F)S(C)(=O)=O | -5% |
| CCN1CCc2c(sc(-n3cccc3)c2C(C)NC(=O)Nc2cc(Cl)c(OC)cc2OC)C1 (centres undefined) | 12% |
| CCOc1ccc(/C(O)=C2\C(=O)C(=O)N(CCN(C)C)C2c2cc(OC)ccc2OC)cc1Cl (centres undefined) | -18% |
| CC1CCCN(C(=O)CN(C)S(=O)(=O)c2cccc3nsnc23)C1 (centres undefined) | -2% |
| CCCCOc1ccccc1C(=O)NCCCC(=O)O | -11% |
| O=c1nc2s/c(=C\c3ccco3)c(=O)n2nc1Cc1ccc(F)cc1 | ? |
| COC(=O)c1ccc(N2CCN(C)CC2)c(NC(=O)c2cccs2)c1 | -1% |
| CCOC(=O)c1c(C)c(C(=O)NCc2ccc3c(c2)OCO3)c(C)n1CC | -11% |
| CCOc1ccc(C(C)=O)cc1COC(=O)CN1C(=O)NC2(CCCC2)C1=O | -29% |
| CN(CCN1CCc2ccccc2C1)Cc1nc(Cc2ccccc2F)no1 | 15% |
| O=C(COC(=O)c1ccc(Cl)nc1)Nc1ccc(S(=O)(=O)N2CCCC2)cc1 | 25% |
| N#Cc1ccc(-c2csc(NC(=O)/C=C/c3cccs3)n2)cc1 | 1% |
| O=C(CNC(=O)c1ccccc1)OCC(=O)c1ccc(Cl)s1 | -15% |
| CCCCOc1ccc(C(=O)N/C(=C\c2cccc([N+](=O)[O-])c2)C(=O)OCCC)cc1 | -8% |
| Cc1ccc(-n2c(C)c3c(C)nnc(C)c3c2C)cc1N | 6% |
| O=C(CN1CCN(Cc2ccccc2)CC1)Nc1cccc(C(F)(F)F)c1 | -16% |
| COc1ccc(NC(=O)c2noc3c2CCCC3)cc1Cl | 10% |
| CN(C(=O)CSc1nnn(C)n1)c1ccccc1 | -7% |
| O=C(CN1C(=O)NC2(CCCC2)C1=O)NCc1ccccc1 | 22% |
| Cn1c(N)c(C(=O)COC(=O)[C@H](Cc2ccccc2)N2C(=O)c3ccccc3C2=O)c(=O)n(C)c1=O | -7% |
| COc1ccc2c(c1)CC/C(=C/c1ccccn1)C2=O | ? |
| Cn1c(=O)oc2cc(S(=O)(=O)NCCC(=O)NCc3ccccc3Cl)ccc21 | -27% |
| c1ccc(Cc2noc(CN3CCCC(CN4CCOCC4)C3)n2)cc1 (centres undefined) | -2% |
| CCCC1=Nc2cc(C(=O)NCCN3CCOCC3)ccc2Sc2ccccc21 | -15% |
| Cc1ccc(C)c(S(=O)(=O)NC(CCC(N)=O)C(=O)O)c1 (centres undefined) | -10% |
| COc1ccc(N2CC(NC(=O)COc3ccccc3F)CC2=O)cc1OC (centres undefined) | 8% |
| O=S(=O)(Nc1ncccn1)c1ccc(Cl)cc1 | -5% |
| O=C(Nc1ccc(C(F)(F)F)cc1)c1ccccc1-n1cnnn1 | 19% |
| CCOc1ccc(N(C(=O)c2ccc3c(c2)OCO3)C2C=CS(=O)(=O)C2)cc1 (centres undefined) | -23% |
| O=C(CN1CCN(c2nc(-c3ccc(F)cc3)cs2)CC1)Nc1ccc2c(c1)OCO2 | 3% |
| NS(=O)(=O)c1cccc(NC(=O)c2cccnc2Oc2ccccc2)c1 | 15% |
| CCCCCCC(O)(c1ccc(OC)cc1)C(CN1CCOCC1)c1ccccc1 (centres undefined) | 20% |
| COc1ccc(CN(C(=O)c2cnccn2)C(C(=O)NC(C)(C)C)c2cc(OC)c(OC)c(OC)c2)cc1 (centres undefined) | 18% |

7 entries from above, with values ahead of the structure:
VDR inh	mol
-27%	Cn1c(=O)oc2cc(S(=O)(=O)NCCC(=O)NCc3ccccc3Cl)ccc21
-15%	CCCC1=Nc2cc(C(=O)NCCN3CCOCC3)ccc2Sc2ccccc21
19%	O=C(Nc1ccc(C(F)(F)F)cc1)c1ccccc1-n1cnnn1
-23%	CCOc1ccc(N(C(=O)c2ccc3c(c2)OCO3)C2C=CS(=O)(=O)C2)cc1 (centres undefined)
15%	NS(=O)(=O)c1cccc(NC(=O)c2cccnc2Oc2ccccc2)c1
8%	COc1ccc(N2CC(NC(=O)COc3ccccc3F)CC2=O)cc1OC (centres undefined)
18%	COc1ccc(CN(C(=O)c2cnccn2)C(C(=O)NC(C)(C)C)c2cc(OC)c(OC)c(OC)c2)cc1 (centres undefined)

(cont.)
| smiles | VDR inh |
| --- | --- |
| CCOc1ccccc1-c1cc(C(=O)Nc2ccc(C(=O)O)cc2)c2ccccc2n1 | 12% |
| Cc1cccc(NC(=O)CSc2nc3c(c(=O)[nH]2)CN(Cc2ccc4c(c2)OCO4)CC3)c1C | 3% |
| CN(CC(=O)Nc1ccccc1Cl)C(=O)C1CCN(C(=O)c2ccc(F)cc2)CC1 | 4% |
| C=CC[C@@H](CC(=O)NCCO)C(=O)N[C@H](COC(=O)[C@@H](CC=C)Cc1ccc(F)cc1)Cc1c[nH]c2ccccc12 | -24% |
| COc1cccc(C(=O)OCC(=O)NC23CC4CC(CC(C4)C2)C3)c1 | 4% |
| O=C(NCC(c1cccnc1)N1CCN(c2ccc(F)cc2)CC1)c1ccccc1 (centres undefined) | -14% |
| C/C=C/C(=O)Nc1cccc(C2=NOC3(C2)C[C@@H](C(N)=O)N(C(=O)/C(C)=C/C)C3)c1 (some centres undefined) | -2% |
| CCOc1ccc(-n2c(SCc3nc(-c4cccs4)no3)nnc2-c2ccncc2)cc1 | -11% |
| O=C(CCNS(=O)(=O)c1ccc(Cl)cc1)NCc1ccccn1 | -3% |
| Cc1ccc(NC(=O)CSc2nnc(-c3ccccn3)n2C)cc1 | -15% |
| CSc1nc2ccc(S(N)(=O)=O)cc2s1 | -9% |
| O=C(CCN=C1NS(=O)(=O)c2ccccc21)OCc1ccccc1 | -20% |
| COc1ccc(CNC(=O)COC(=O)CCOc2ccccc2)cc1 | 11% |
| CCOc1ccccc1OCC(=O)OCC(=O)c1c(N)n(CC(C)C)c(=O)n(C)c1=O | 11% |
| CC(C)NC(=S)N/N=C1\CCCCc2ccccc21 | -15% |
| Fc1ccccc1SCc1nnc(-c2ccccc2Br)o1 | 45µM* |
| CC(=O)NC(C)CCc1ccccc1 (centres undefined) | 9% |

Some of the compounds tested; count on the stated rates, not on these rows.
